From PubChem BioAssay
NOMO-1 viab: STK33 inhibitor candidate reducing NOMO-1 cell viability. NOMO-1 AML viability, CellTiter-Glo luminescence, 72 h. inhibition, % (concentration not given with the values). 37,000 compounds, 7.5% hits. AID 2330;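 active = most replicates above 80%; inconclusive = exactly half above 80%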;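 also: wells of about 30 µL received 25 nL stock; 0% = median of vehicle wells and 100% = reference inhibitor level; the first replicate is given; inactives centre near 10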
Numbers without * were called inactive; ? = inconclusive.

SMILES	NOMO-1 viab
COC1CC(OC2C(C)OC(OC3C(C)OC(OC4C(C)OCC(OC5C(O)C(O[C@H]6CC[C@@]7(C)C(=CC[C@]8(O)C7CC(OC(=O)c7ccccc7)[C@@]7(C)[C@]8(O)CC[C@@]7(O)C(C)=O)C6)OC(CO)C5OC5OC(CO)C(O)C(O)C5O)C4OC)CC3OC)CC2OC)OC(C)C1O (stereo partly specified)	?
C[C@@H]1CN([C@@H](C)CO)C(=O)c2cccc(NC(=O)c3ccc(-c4nccs4)cc3)c2O[C@H]1CN(C)C(=O)Nc1ccccc1	-9.7
C[C@@H]1CN([C@@H](C)CO)C(=O)Cc2cc(NC(=O)Nc3ccc(C(F)(F)F)cc3)ccc2O[C@@H]1CN(C)Cc1ccncc1	115.8*
C=C1C(=O)O[C@@H]2/C=C(/COC(C)=O)CC/C=C(/CO)CC[C@@H]12	116.8*
COc1ccc(NC(=O)N(C)C[C@H]2Oc3c(NC(=O)NC4CCCCC4)cccc3C(=O)N([C@@H](C)CO)C[C@@H]2C)cc1	-0.4
O=C(NCc1cccnc1)c1cnn2c1NC(c1ccccc1)CC2C(F)(F)F (stereo unspecified)	12.8
Cc1noc(C)c1NC(=O)N(C)C[C@H]1Oc2ccc(NC(=O)Nc3ccc4c(c3)OCO4)cc2CC(=O)N([C@@H](C)CO)C[C@H]1C	4.1
C[C@@H]1CN([C@H](C)CO)C(=O)c2cc(NC(=O)Cc3ccccc3)ccc2O[C@H]1CN(C)S(=O)(=O)c1cccs1	-10.5
C[C@@H]1CN([C@H](C)CO)C(=O)Cc2cc(NC(=O)CCN3CCOCC3)ccc2O[C@@H]1CN(C)Cc1ccc(Cl)c(Cl)c1	10.4
Cc1noc(C)c1NC(=O)Nc1ccc2c(c1)C(=O)N([C@H](C)CO)C[C@@H](C)[C@H](CN(C)C(=O)Nc1cccc3ccccc13)O2	-14.3
C[C@H]1CN([C@@H](C)CO)C(=O)Cc2cc(NC(=O)Cn3cnnn3)ccc2O[C@@H]1CN(C)C(=O)Nc1ccc(C(F)(F)F)cc1	6.6
C[C@@H]1CN([C@H](C)CO)C(=O)Cc2cc(NC(=O)Nc3ccc(F)cc3)ccc2O[C@@H]1CN(C)Cc1ccc(C(=O)Nc2ccccc2N)cc1	97.3*
CNC[C@H]1Oc2ccc(NS(=O)(=O)c3ccc(OC)cc3)cc2C(=O)N([C@H](C)CO)C[C@@H]1C	17.1
Cc1ccc(-c2nc3ncccc3o2)cc1NC(=O)COc1cc(C)c(Cl)c(C)c1	61.2
COc1ccc(S(=O)(=O)Nc2ccc3c(c2)C(=O)N([C@H](C)CO)C[C@@H](C)[C@@H](CN(C)C(=O)Nc2ccccc2)O3)cc1	7.6
Cc1nn(Cc2cccc(C(=O)Nc3ccc(S(=O)(=O)N4CCCCC4)cc3)c2)c(C)c1Cl	59.3
Cc1ccc(S(=O)(=O)N(C)CC(=O)Nc2ccc(F)cc2)cc1	18.8
C[C@@H]1CN([C@@H](C)CO)C(=O)c2cc(NS(=O)(=O)c3ccc(Cl)cc3)ccc2O[C@@H]1CN(C)Cc1ccc(Cl)c(Cl)c1	115.5*
C[C@@H]1CN([C@@H](C)CO)C(=O)c2cccc(NC(=O)c3cnccn3)c2O[C@H]1CN(C)Cc1ccccc1	52.9
CCSc1nnc2c(n1)OC1(Nc3ccccc3-2)C(=O)Nc2ccc(Br)cc21 (stereo unspecified)	55.0
CN(CCCC(=O)O)c1nc(-c2ccc(F)cc2)cs1	18.5
NC(=O)c1ccc(-n2c(CCC(=O)O)ccc2-c2cccs2)cc1	-3.7
C[C@@H]1CN([C@H](C)CO)C(=O)Cc2cc(NC(=O)c3ccncc3)ccc2O[C@@H]1CN(C)S(=O)(=O)c1ccc(F)cc1	-7.7
C=C(C)Cn1c(SCc2nc3ccccc3[nH]2)nc2sc3c(c2c1=O)CCC3	27.6
C[C@@H]1CN([C@H](C)CO)C(=O)Cc2cc(NC(=O)c3ccncc3)ccc2O[C@H]1CN(C)S(=O)(=O)c1cn(C)cn1	-6.3

As entered above.
In NOMO-1 viab, C[C@@H]1CN([C@H](C)CO)C(=O)Cc2cc(NC(=O)CCN3CCOCC3)ccc2O[C@@H]1CN(C)Cc1ccc(Cl)c(Cl)c1 reads 10.4
In NOMO-1 viab, C[C@@H]1CN([C@H](C)CO)C(=O)Cc2cc(NC(=O)c3ccncc3)ccc2O[C@@H]1CN(C)S(=O)(=O)c1ccc(F)cc1 reads -7.7

(cont.)
SMILES	NOMO-1 viab
COc1ccc(NC(=O)N(C)C[C@@H]2OCCCC[C@@H](C)Oc3ccc(NS(=O)(=O)c4ccc(OC)cc4)cc3C(=O)N([C@H](C)CO)C[C@@H]2C)cc1	10.9
COc1ccc(S(=O)(=O)Nc2cccc3c2O[C@H](CN(C)C(=O)Nc2ccccc2)[C@@H](C)CN([C@@H](C)CO)C3=O)cc1	10.6
CC(C)NC(=O)N(C)C[C@@H]1Oc2c(NC(=O)Nc3cccc4ccccc34)cccc2C(=O)N([C@H](C)CO)C[C@@H]1C	31.2
O=C(NCCOc1nc(N2CCCCC2)nc(N2CCOCC2)n1)Nc1ccccc1	-7.6
CCn1c(SCC(=O)Nc2ccc(Cl)cc2Cl)nnc1-c1ccccc1F	-3.1
C[C@@H]1CN([C@H](C)CO)C(=O)c2cc(NS(=O)(=O)c3ccc(F)cc3)ccc2O[C@@H]1CN(C)CC1CCCCC1	12.8
Cc1ccc(Cl)c(OCC(=O)NCc2ccco2)c1	10.3
C[C@@H]1CN([C@@H](C)CO)C(=O)c2cc(NS(=O)(=O)c3cccs3)ccc2O[C@H]1CN(C)S(=O)(=O)c1cn(C)cn1	9.1
C[C@H]1CN([C@@H](C)CO)C(=O)c2cc(N(C)C)ccc2O[C@H]1CN(C)Cc1ccc(C(=O)Nc2ccccc2N)cc1	109.9*
COc1ccc(S(=O)(=O)N(C)C[C@@H]2Oc3ccc(NS(=O)(=O)c4cccs4)cc3C(=O)N([C@H](C)CO)C[C@H]2C)cc1	5.3
CC1(C)Cc2c(sc3c2c(=O)n(Cc2ccccc2)c2nnc(SCC(=O)c4ccc(Cl)cc4)n32)CO1	3.3
CS(=O)(=O)N(CC(=O)Nc1cccc(C(F)(F)F)c1)c1ccc(F)c(Cl)c1	53.9
COc1cc(C(=O)NC2(C(F)(F)F)C(=O)N(CC3CCCO3)C3=C2C(=O)CC(C)(C)C3)cc(OC)c1OC (stereo unspecified)	4.3
CC(C)NC(=O)Nc1ccc2c(c1)C(=O)N([C@H](C)CO)C[C@H](C)[C@@H](CN(C)S(=O)(=O)c1ccc(F)cc1)OCCCC[C@@H](C)O2	31.9
C[C@H]1CN([C@@H](C)CO)C(=O)c2cc(NC(=O)Cc3cn(C)c4ccccc34)ccc2O[C@H]1CN(C)Cc1ccccc1	83.8*
CNC[C@@H]1Oc2ccc(NC(=O)Nc3ccccc3)cc2C(=O)N([C@H](C)CO)C[C@@H]1C	14.2
C[C@H](CO)N1C[C@H](C)[C@@H](CN(C)C(=O)Nc2ccc(F)cc2)Oc2c(NS(=O)(=O)c3ccccc3)cccc2C1=O	-14.8
CC(C)NC(=O)Nc1ccc2c(c1)C(=O)N([C@@H](C)CO)C[C@H](C)[C@H](CN(C)C(=O)NC(C)C)O2	15.2
C[C@@H]1CCCCO[C@@H](CN(C)Cc2ccc(C(=O)Nc3ccccc3N)cc2)[C@@H](C)CN([C@H](C)CO)C(=O)c2cc(NS(=O)(=O)c3ccccc3)ccc2O1	139.6*
C[C@@H]1CN([C@@H](C)CO)C(=O)c2cc(NC(=O)CCN3CCOCC3)ccc2O[C@@H]1CN(C)S(=O)(=O)c1ccc(Cl)cc1	-10.1
C[C@H]1CN([C@@H](C)CO)C(=O)c2cccc(NS(=O)(=O)c3cccs3)c2O[C@@H]1CN(C)C(=O)Nc1ccccc1	2.0
COc1ccc(S(=O)(=O)Nc2ccc3c(c2)CC(=O)N([C@@H](C)CO)C[C@H](C)[C@@H](CN(C)CC2CC2)O3)cc1	-4.4
C[C@@H]1CN([C@H](C)CO)C(=O)Cc2cc(NC(=O)Cc3ccccc3)ccc2O[C@@H]1CN(C)S(=O)(=O)c1ccccc1	-4.9
CC(C)(O)/C=C/C1=CC(O)C(C)(O)CC1O (stereo unspecified)	-8.1
COc1cc(O[C@@H]2O[C@H](CO[C@H]3OC[C@](O)(COC(=O)c4ccc(O)c(OC)c4)[C@H]3O)[C@@H](O)[C@H](O)[C@H]2O)ccc1O	120.4*

(list continues)
SMILES	NOMO-1 viab
CSc1ccccc1NC(=O)CN(C)S(=O)(=O)c1ccc(Cl)cc1	1.2
C[C@H]1CN([C@@H](C)CO)C(=O)Cc2cc(NC(=O)c3ccncc3)ccc2O[C@H]1CN(C)Cc1ccc2c(c1)OCO2	16.3
C[C@@H]1CN([C@H](C)CO)C(=O)Cc2cc(NS(=O)(=O)c3ccccc3)ccc2O[C@@H]1CN(C)Cc1ccccc1	26.7
Cc1ccc(S(=O)(=O)N(C)C[C@@H]2Oc3ccc(NS(C)(=O)=O)cc3C(=O)N([C@@H](C)CO)C[C@@H]2C)cc1	-7.1
COc1ccc2c(c1OC)C(=O)N(c1ncn[nH]1)C2	-0.8
CC(=O)Nc1ccc(Nc2ncnc3c2cnn3Cc2ccc(Cl)cc2)cc1	-14.5
COc1ccc(-c2csc3ncnc(SCc4c(C)noc4C)c23)cc1	?
C[C@H]1CN([C@@H](C)CO)C(=O)c2cccc(NC(=O)c3nc4ccccc4s3)c2O[C@H]1CN(C)C(=O)Nc1ccccc1	0.6
CCOC(=O)c1cnc2c(C(F)(F)F)cccc2c1NCCO	36.2
NC(=O)CSc1nc2ccc([N+](=O)[O-])cc2[nH]1	1.6
C[C@@H]1CN([C@H](C)CO)C(=O)c2cccc(NC(=O)NC3CCCCC3)c2O[C@@H]1CN(C)Cc1ccc2c(c1)OCO2	14.0
C[C@@H]1CN([C@H](C)CO)C(=O)c2cccc(NC(=O)C3CCOCC3)c2O[C@H]1CN(C)Cc1ccc(C(=O)Nc2ccccc2N)cc1	18.7
Cc1ccc(S(=O)(=O)Nc2cccc3c2O[C@@H](CN(C)CC2CCCCC2)[C@@H](C)CN([C@@H](C)CO)C3=O)cc1	20.7
C[C@@H]1CN([C@@H](C)CO)C(=O)c2cc(NC(=O)C3CC3)ccc2O[C@H]1CN(C)C(=O)Nc1ccccc1	33.1
CS/C(=N\S(=O)(=O)c1cc(C(F)(F)F)cc(C(F)(F)F)c1)N1CCOCC1	3.4
CNC[C@@H]1OCCCC[C@@H](C)Oc2ccc(N(C)C)cc2C(=O)N([C@H](C)CO)C[C@@H]1C	23.5
CC(=O)Oc1ccc2occ(C(=O)c3cc4ccccc4o3)c2c1	39.6
C/C=C1/[C@H](O[C@@H]2O[C@H](CO)[C@@H](O)[C@H](O)[C@H]2O)OC=C2C(=O)O[C@@H]3C[C@@H](C(C)CO)[C@H](COC(=O)C[C@H]21)[C@H]3C (stereo partly specified)	1.3
CC(=O)Oc1ccc2c(c1)CCC1C2CC[C@@]2(C)C1CC[C@@H]2OC(C)=O (stereo partly specified)	0.3
COc1ccc(S(=O)(=O)Nc2ccc3c(c2)CC(=O)N([C@@H](C)CO)C[C@H](C)[C@@H](CN(C)S(=O)(=O)c2ccc(C)cc2)O3)cc1	23.8
Cc1noc(C)c1S(=O)(=O)Nc1ccc2c(c1)CC(=O)N([C@@H](C)CO)C[C@@H](C)[C@@H](CN(C)Cc1ccccc1)O2	-9.9
COc1ccc(CCNS(=O)(=O)c2ccc(OC)c(Cl)c2Cl)cc1OC	15.6
C[C@H]1CN([C@@H](C)CO)C(=O)c2cc(NC(=O)Cn3cnnn3)ccc2O[C@@H]1CN(C)Cc1ccccc1	-8.1
COc1ccc(S(=O)(=O)Nc2ccc3c(c2)C(=O)N([C@@H](C)CO)C[C@H](C)[C@H](CN(C)C(=O)Nc2ccc(F)cc2)O3)cc1	-12.6
Cc1ccc(S(=O)(=O)Nc2ccc3c(c2)C(=O)N([C@@H](C)CO)C[C@H](C)[C@@H](CN(C)Cc2ccc(C(F)(F)F)cc2)O3)cc1	?

Additional results follow:
SMILES	NOMO-1 viab
C[C@@H]1CN([C@@H](C)CO)C(=O)c2cc(NC(=O)Nc3ccc4c(c3)OCO4)ccc2O[C@@H]1CN(C)C	-8.3
Cc1ccc(-n2c(SCC(=O)Nc3cccc(C)c3C)nnc2-c2ccncc2)cc1C	7.8
CC(C)NC(=O)Nc1cccc2c1O[C@@H](CN(C)Cc1ccc(C(=O)Nc3ccccc3N)cc1)[C@@H](C)CN([C@@H](C)CO)C2=O	141.1*
O=C(COc1ccccc1[N+](=O)[O-])Nc1cccc(-c2nc3cc(Cl)cc(Cl)c3o2)c1	13.3
C[C@H]1CN([C@@H](C)CO)C(=O)c2cccc(N(C)C)c2O[C@@H]1CN(C)C(=O)NC1CCCCC1	-9.0
N=C1C(c2nc3ccccc3s2)=C(O)CN1CCCN1CCOCC1	14.1
O=C(Cn1ccc([N+](=O)[O-])n1)NCc1cccs1	-7.4
CC(=O)Nc1ccc(NC(=O)COc2ccccc2C(=O)Nc2cccc(C)c2C)cc1	12.4
C[C@H]1CN([C@@H](C)CO)C(=O)c2cc(NS(=O)(=O)c3ccc(F)cc3)ccc2O[C@H]1CN(C)S(=O)(=O)c1ccc(F)cc1	43.4
Cc1cccc(C)c1OCC(=O)NCc1ccccn1	-4.2
C[C@@H]1CN([C@@H](C)CO)C(=O)c2cc(NS(=O)(=O)c3cccs3)ccc2O[C@@H]1CN(C)Cc1ccccc1	-10.8

An excerpt of these results, comma-delimited:
Compound,NOMO-1 viab
C[C@H]1CN([C@@H](C)CO)C(=O)c2cccc(NC(=O)c3nc4ccccc4s3)c2O[C@H]1CN(C)C(=O)Nc1ccccc1,0.6
CCOC(=O)c1cnc2c(C(F)(F)F)cccc2c1NCCO,36.2

Some of the entries above, reformatted.
compound,NOMO-1 viab
CC(C)NC(=O)Nc1cccc2c1O[C@@H](CN(C)Cc1ccc(C(=O)Nc3ccccc3N)cc1)[C@@H](C)CN([C@@H](C)CO)C2=O,141.1*
O=C(COc1ccccc1[N+](=O)[O-])Nc1cccc(-c2nc3cc(Cl)cc(Cl)c3o2)c1,13.3
C[C@H]1CN([C@@H](C)CO)C(=O)c2cccc(N(C)C)c2O[C@@H]1CN(C)C(=O)NC1CCCCC1,-9.0

Only part of the results is shown (hit frequency here may not be typical).
